Screens from PubChem BioAssay.
NPYLR7 agonist = mosquito NPYLR7 agonism; HEK293T NPYLR7/Galpha15, GCaMP6s calcium fluorescence; AID 1259423; hit rate 0.15% among 270,000; activation, % at 10 µM; in the data active = activation above about 40%;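 note: 0% = vehicle and 100% = reference agonist at the receptor; some compounds past the cut are filed as inactive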
NPYLR7 agonist max-min = also measured in NPYLR7 agonist; calls as there; activation, %; measured here: Max-Min RFU normalised activation; some inactives read as strong as hits;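 span of the calcium signal over five minutes; 0% = vehicle and 100% = native peptide agonist; compound fluorescence can raise it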
* marks the source's active call; other numbers are inactive results. These rows are one share of the data, so the mix of outcomes need not match the whole.

SMILES	NPYLR7 agonist	NPYLR7 agonist max-min
Fc1ccc(C=NNc2nncc3ccccc23)cc1F	13	9
O=C(c1ccco1)N1CCN(C(=O)C2CC23c2ccccc2-c2ccccc23)CC1 (stereo not given)	5	3
Cc1nc(CN(C)Cc2cccc3ncccc23)c2ccccn12	4	3
COCCCN(CC(=O)N(CCc1c[nH]c2ccccc12)Cc1ccc(F)cc1)C(=O)c1ccc(-c2ccccc2)cc1	20	22
CCOC(=O)c1nn(CCc2scnc2C)c2c1CN(C(=O)CSc1ccccn1)CC2	27	14
CC(C)(C)OC(=O)N1CCC(C(=O)N2CCC(c3ccccc3)CC2)CC1	-1	-5
COCCNC(=O)Cn1nc2c(c1NC(=O)C1CC1)CSC2	-2	5
COc1ccc(/C=N\NC(=O)CSc2nnc(-c3ccc(Cl)cc3)n2-c2ccccc2)c(OC)c1	-4	-7
CC(=O)N1CCC2(CC1)OC(=O)C(C)=C2C(=O)N1CCN(C)CC1	4	3
CCC(C)NC(=O)Cn1nc2n(Cc3ccccc3)c(=O)c3ccc(C(=O)NC(C)C)cc3n2c1=O (stereo not given)	-1	-5
Cc1cc(C)cc(N2C(=O)C3N=NN(Cc4nc(-c5cccc(Cl)c5)oc4C)C3C2=O)c1 (stereo not given)	8	6
CC(C)[C@H](NC(=O)c1ccc2ccccc2c1)c1nnc2c(C(F)(F)F)cccn12	27	22
Cc1cc(C)n(CCC(=O)N2CCC3(CCN(C)CC3)C2)c(=O)n1	1	0
CN(C(=O)COCC1CCCCO1)C1Cc2ccccc2C1 (stereo not given)	6	5
NC(CCc1ccccc1)c1csc(Nc2nncc3ccccc23)n1 (stereo not given)	-4	-7
CCc1c(C)sc2ncnc(NCc3cccnc3N3CCOCC3)c12	5	-1
CC(=O)NCCn1ccnc1-c1cc2ccccc2o1	17	14
O=C(CN1C(=O)COc2ccccc21)N1CCN(c2ccccc2F)CC1	1	-1
O=S(=O)(c1ccccc1)N1N=C(c2ccccc2)CC1c1ccc2nccnc2c1 (stereo not given)	1	3
O=C1CC(C(=O)N2CC3CCC2C3)CN1c1nccs1 (stereo not given)	5	4
COc1ccc(Cn2cnc(-c3ccccc3)cc2=O)cc1	-11	-12
O=C(CCNC(=O)C1CCCC1)NCc1ccnc(Oc2ccccc2)c1	7	5
Cc1ccc(Cc2nsc(N3CCN(C(=O)C(Cl)c4ccccc4)C(C)C3)n2)cc1 (stereo not given)	-4	5
N#Cc1c(NC(=O)c2ccc([N+](=O)[O-])s2)sc2c1CCCC2	23	38
CC1=CC(=NNC(=S)NC2CCCCC2)CC(C)(C)C1	1	0
O=C1c2ccccc2C(=O)N1CNc1cccc(Cl)c1Cl	3	4
COc1nc(-c2ccccc2)ccc1-c1noc(-c2cccc(C)c2)n1	-5	-8
Cc1cn2c3c(=O)n(CC(=O)C(C)(C)C)c(=O)n(C)c3nc2n1C(C)c1ccccc1 (stereo not given)	-2	0
CC(C)c1nnc(NC(=O)C(F)(F)F)s1	2	9
O=[N+]([O-])c1ccc(NN=C2CCc3ccccc32)cc1	-2	-4
CCCCN(C)C(=O)c1sc(=O)n(CC(=O)c2ccc(N3CCCC3)cc2)c1C	-4	-4
COc1ccc(CCN(C)CCCOc2ccc(S(=O)(=O)c3c(C(C)C)c4ccccc4n3C)cc2)cc1OC	5	-9
CCN(Cc1ccc(OC)c(OC)c1)C(=O)C1Cc2ccccc2O1 (stereo not given)	4	-5
Cc1cccc(OCCN2CCn3cccc3C2C)c1 (stereo not given)	-2	-4
CCC(=O)Nc1ccc(S(=O)(=O)Nc2ccc3c(c2)CCC(=O)N3Cc2ccccc2)c(C)c1	-8	-7
Cc1nc(SCc2ccc(C(=O)O)cc2)nc(N2CCCC2)c1C	8	18
Cc1ccc(-c2cc(CN3CCCCC3c3ccccn3)on2)cc1 (stereo not given)	-1	-1
COCCCN(Cc1ccsc1)CC(O)COCC(C)C (stereo not given)	29	27
COCCNCc1csc(COc2cc(Cl)ccc2Cl)n1	26	26
COC(=O)Cn1c(=NC(=O)CN2C(=O)CCC2=O)sc2cc3c(cc21)OCCO3	0	-2
O=C(CNCCCc1cccnc1)Nc1ccc(Cl)cc1F	14	0
Cc1cc(OCC(=O)NNC(=O)c2ccc(F)cc2)cc(C)c1Cl	-6	-9
CC(C)Oc1ccc(-c2cc(C(=O)N/N=C\c3c[nH]c4ccccc34)[nH]n2)cc1	3	2
COc1cccc(OC)c1C(=O)Nc1ccc(N2CCC(C)CC2)c(C(=O)NCCc2ccccc2)c1	22	31
COCc1ccc(C(=O)Nc2ccc(C)c3cn[nH]c23)cc1	-1	49
COc1ccc(/C=C2/SC(=S)N(CNc3ccc(OC)cc3)C2=O)cc1	7	8
Cc1ccc(NC(=O)N2CCN(C(=O)Cc3ccccn3)CC2)cc1	11	9
COc1cc(C#N)ccc1OCC(=O)NCC(=O)Nc1ccc(F)c(F)c1	-2	-5
COCCOc1nc(-c2ccc(F)cc2)n(-c2cccc(NC(=O)CC(C)C)c2)n1	17	27
COC(=O)c1cn(C(=O)OC)c2ccccc12	17	13
CN(CCc1ccccn1)C(=O)c1ccc(-c2cc(-c3cccc4ccccc34)[nH]n2)cc1	-2	5
Cn1ccnc1CN1CCN(Cc2cc3n(n2)CCNC3)CC1	1	1
O=c1[nH]nc(Cc2ccncc2)n1CC1CCCCC1	13	10
CC(C)C[C@H](NC(=O)C(n1cccc1)C(C)(C)C)C(=O)NCC#N (stereo not given in full)	6	1
CN1CCCc2cc(C(CNS(=O)(=O)c3cccs3)N3CCCC3)ccc21 (stereo not given)	3	0
O=S(=O)(NCc1cn2cc(Cl)ccc2n1)N1CCCCC1	9	2
CCn1c(C2CCN(C(=O)CCCn3cncn3)CC2)nn(C)c1=O	11	8
CCn1cc(NC(=O)c2cccc(Br)c2)cn1	3	2
Cc1ccc2[nH]c3c(c2c1)CN(c1nc(CCN)nc2ccccc12)CC3	31	17
COC(=O)c1c(CC(=O)O)[nH]c(C(C)=O)c1C	2	0
(further entries)
SMILES	NPYLR7 agonist	NPYLR7 agonist max-min
COc1ccc(N=Nc2c(-c3ccccc3)[nH]n(-c3ccccc3)c2=O)c([N+](=O)[O-])c1	-2	-7
COCCCNCc1cccc(NC(=O)c2ccccc2Cl)c1	7	6
CCN(CC)c1onc(-c2ccccc2)c1CN(CC(O)COc1ccccc1C)CC1CCCO1 (stereo not given)	15	17
CN(C)Cc1cn([C@H]2CO[C@H]3[C@@H]2OC[C@H]3O)nn1	-3	-14
O=C(c1ccc[nH]1)N(Cc1ccsc1)Cc1ccco1	0	-6
COC(=O)Cn1c(=O)c2c(nc3n(-c4ccc(Oc5ccccc5)cc4)c(C)c(C)n23)n(C)c1=O	2	3
CCOC(=O)c1cnc(-c2ccc(OC)c(OC)c2)nc1NC(CC)COC (stereo not given)	13	23
COc1cccc(CN2CCC(O)(c3ccc4nc(C)ccc4c3)CC2)c1OC	8	-1
COc1ccc(C2Oc3ccccc3C3CC(c4ccccc4)=NN32)cc1OC (stereo not given)	19	10
CC(C)Cc1ncc2c(n1)CN(C(=O)Cc1cccs1)C2	10	11
CCOc1ccc(-c2nc(-c3cc(OC)ccc3OC)cs2)cc1OC	1	7
COc1cc(N2CCC(c3cc(-c4ccco4)n[nH]3)CC2)ncn1	7	6
COc1cc([N+](=O)[O-])cc2sc(NC(=O)c3ccno3)nc12	11	10
COC(=O)c1c(C)c(C(=O)C(C)N(Cc2ccco2)C(=O)C2C[C@H]2c2ccccc2)c(C)n1C (stereo not given in full)	-7	-5
Cc1cccc(CC(=O)NCCc2cc3c(C)ccc(C)c3[nH]c2=O)c1	27	25
Oc1c(C(c2cccnc2)N2CCCCC2)ccc2cccnc12 (stereo not given)	2	0
CSC1(CNC(=O)C2(c3ccccc3)CC2)CCOCC1	-22	-25
NC(=O)C1Cc2ccccc2CN1CC1CCCCC1 (stereo not given)	5	1
COc1ccc(OCCNC(=O)CCn2cnc3ccccc3c2=O)cc1	-1	9
CN1CCN(c2cc(-c3cccc4ccccc34)nc3ccnn23)CC1	-2	-4
O=S(=O)(c1ccc(-c2ccccn2)s1)N1CCN(CCCOC(c2ccc(Cl)cc2)c2ccc(Cl)cc2)CC1	1	-5
Cc1cc(C)nc(N2C[C@H]3OC(=O)N(Cc4ccccn4)[C@H]3C2)n1	17	8
CCCCCC(=O)N1CC(=O)N(C2Cc3ccccc3C2)CC(O)C1 (stereo not given)	2	0
COc1cccc(CN2CCC(C(=O)Nc3ccc(Oc4ccccc4F)cc3)CC2)c1	11	4
CC1CCN(C(=S)NC2CC3CCC2C3)CC1 (stereo not given)	17	9
COc1ccccc1N1CCN(c2ccc(NC(=O)c3ccc([N+](=O)[O-])cc3)cc2C(=O)NC(C)c2ccccc2)CC1 (stereo not given)	18	22
Cc1ccc(C=NNC(C)(C)C)s1	6	2
C=CCN(Cc1csc(COc2ccccc2C(C)C)n1)S(=O)(=O)c1ccc(C)cc1	8	26
COc1ccc(Nc2nc(-c3ccco3)nc3ccccc23)cc1	-2	5
COc1ccc(-c2cc(C(F)(F)F)n3ncc(C(=O)Nc4cc(C)on4)c3n2)cc1	3	4
CNC(C)C(C)S(C)(=O)=O (stereo not given)	-1	-5
O=C(CSc1nnnn1Cc1ccco1)Nc1ccc(Cl)cc1	1	-3
Cc1nn(C)c(C)c1C(C)NC(=O)[C@@H](C)NC(=O)OC(C)(C)C (stereo not given in full)	0	11
NC(=O)C1CN(C(=O)Cc2ccc3c(c2)CCCC3)c2ccccc2O1 (stereo not given)	10	9
c1ccc(COc2ccc(-n3cnnc3)cc2)nc1	-10	-11
Cc1ccc(CNC(=O)CSc2nc(=O)n(CC3CCCO3)c3c2CCC3)cc1 (stereo not given)	-4	-8
COc1ccc(CCOC(=O)[C@@H]2CCCN2C(=O)C(CC(C)C)NC(=O)c2ccccc2)cc1OC (stereo not given in full)	-5	-8
CCCCOc1ccc(C2=N/C(=C\c3ccc(F)cc3)C(=O)O2)cc1	-1	-6
COc1c[nH]c(C(=O)Nc2ccc(C(C)C)cc2)cc1=O	1	-4
CC1C(=O)N(c2ccccc2-c2ccccc2)CCN1C(=O)c1ccc(Cl)c(Cl)c1 (stereo not given)	-4	7
CCOc1ccc2nc(SCC(=O)Nc3cc(C(=O)O)cc(C(=O)O)c3)sc2c1	-7	-13
CC1CN(c2nc(N)c([N+](=O)[O-])c(NC3CCCCC3)n2)CC(C)O1 (stereo not given)	3	2
CCC(=O)NC1=C(Nc2ccc(SC(F)F)cc2)C(=O)c2ccccc2C1=O	3	2
COc1cn(CC(=O)NC(C)(C)C)c(CN2CCN(c3ccccc3)CC2)cc1=O	0	-1
Nc1c(Cl)ncnc1N1CCN(c2ncnc(Cl)c2N)CC1	4	-9
Cc1cc(C)[n+]2nc(C)sc2n1	-9	-18
CC(C)(C)C(=O)NC(C)(C#N)C1CC1 (stereo not given)	9	3
Cc1nc(C(C)NC(=O)COc2ccc(F)cc2)n[nH]1 (stereo not given)	16	9
CN(C)C1CCCN(C(=O)c2ccc(Cl)cc2O)CC1 (stereo not given)	13	5
Cc1nn(C)c(C)c1CC(=O)C(C#N)c1nc2sc3c(c2c(=O)[nH]1)CCCC3 (stereo not given)	0	-4
CC(OC(=O)CNC(=O)c1ccc(-c2ccccc2)cc1)C(=O)NC1(C#N)CCCCC1 (stereo not given)	-1	9
Cc1cc(C(=O)N2CCN(c3ncccc3NC(=O)c3ccc4c(c3)OCO4)CC2)n(C)n1	3	-4
COc1ccc(C)c2sc(N(Cc3cccnc3)C(=O)c3ccc([N+](=O)[O-])s3)nc12	-10	-9
CC(C)C(C)N(Cc1ccc(C#N)cc1)Cc1cccn1Cc1ccc(C(F)(F)F)cc1 (stereo not given)	4	8
CNC(=O)[C@@]1(OCc2cccc(C)c2)CC(OCc2cccc(Cl)c2)[C@@H]2OC(C)(C)O[C@@H]2C1 (stereo not given in full)	25	16
Cc1ccc2nc(C(NC(=O)CS(C)(=O)=O)C(C)C)[nH]c2c1 (stereo not given)	-5	-4
COc1ccccc1C1CC(c2c(C)nc3ccc(Cl)cc3c2-c2ccccc2)=NN1C(C)=O (stereo not given)	12	2
Cc1nc(CC2CCN(Cc3nc(-c4cccc(F)c4F)oc3C)CC2)no1	0	-1

Filtered by structure: the entries above with fluorine
SMILES	NPYLR7 agonist	NPYLR7 agonist max-min
Fc1ccc(C=NNc2nncc3ccccc23)cc1F	13	9
COCCCN(CC(=O)N(CCc1c[nH]c2ccccc12)Cc1ccc(F)cc1)C(=O)c1ccc(-c2ccccc2)cc1	20	22
CC(C)[C@H](NC(=O)c1ccc2ccccc2c1)c1nnc2c(C(F)(F)F)cccn12	27	22
O=C(CN1C(=O)COc2ccccc21)N1CCN(c2ccccc2F)CC1	1	-1
CC(C)c1nnc(NC(=O)C(F)(F)F)s1	2	9
O=C(CNCCCc1cccnc1)Nc1ccc(Cl)cc1F	14	0
Cc1cc(OCC(=O)NNC(=O)c2ccc(F)cc2)cc(C)c1Cl	-6	-9
COc1cc(C#N)ccc1OCC(=O)NCC(=O)Nc1ccc(F)c(F)c1	-2	-5
COCCOc1nc(-c2ccc(F)cc2)n(-c2cccc(NC(=O)CC(C)C)c2)n1	17	27
COc1cccc(CN2CCC(C(=O)Nc3ccc(Oc4ccccc4F)cc3)CC2)c1	11	4
COc1ccc(-c2cc(C(F)(F)F)n3ncc(C(=O)Nc4cc(C)on4)c3n2)cc1	3	4
CCCCOc1ccc(C2=N/C(=C\c3ccc(F)cc3)C(=O)O2)cc1	-1	-6
CCC(=O)NC1=C(Nc2ccc(SC(F)F)cc2)C(=O)c2ccccc2C1=O	3	2
Cc1nc(C(C)NC(=O)COc2ccc(F)cc2)n[nH]1 (stereo not given)	16	9
CC(C)C(C)N(Cc1ccc(C#N)cc1)Cc1cccn1Cc1ccc(C(F)(F)F)cc1 (stereo not given)	4	8
Cc1nc(CC2CCN(Cc3nc(-c4cccc(F)c4F)oc3C)CC2)no1	0	-1
